# Compound activity: PubChem, National Center for Advancing Translational Sciences (NCATS)
# VDR inhibitor: blocks the human vitamin D receptor. AID 504847. Potency, µM, for the others: max response, negative = inhibition, usual class: inhibitors. VDR-SRC2-3 peptide fluorescence polarization, 2 h. 400,000 tested, 0.93% active; active means well fitted inhibition curve with a large enough effect; inconclusive means small, poorly fitted or top-dose-only effect, or another doubt; inactive means no such curve, though single readings can be large or run the other way; further: series mostly up to about 120 µM
# Target sequence (P11473 whole entry, looked up): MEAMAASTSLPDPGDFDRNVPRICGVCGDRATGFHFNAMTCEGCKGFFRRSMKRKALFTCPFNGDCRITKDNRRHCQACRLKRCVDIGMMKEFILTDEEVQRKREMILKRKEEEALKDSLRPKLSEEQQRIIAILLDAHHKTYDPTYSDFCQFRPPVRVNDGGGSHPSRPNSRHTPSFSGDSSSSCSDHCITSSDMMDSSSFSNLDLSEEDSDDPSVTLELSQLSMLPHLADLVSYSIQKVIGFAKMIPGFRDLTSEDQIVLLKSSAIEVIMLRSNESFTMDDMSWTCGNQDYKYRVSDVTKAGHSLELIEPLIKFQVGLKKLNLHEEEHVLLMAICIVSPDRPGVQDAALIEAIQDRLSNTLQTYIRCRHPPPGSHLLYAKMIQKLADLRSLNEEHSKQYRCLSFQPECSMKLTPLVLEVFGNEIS
#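 Inhibition of the VDR/SRC2-3 peptide interaction is quantified by fluorescence polarization. Compounds (23 nl, pintool) incubate with the reagents for 2 hours at ambient room temperature.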
# The depositor's hits bear a star; ? = inconclusive; & = joins results of further samples; [ ] = dose if it differs, or a comment. On the % scale 0 is the no-effect control and ±100 the full control effect; potency means the concentration at half of the fitted maximal effect.
no.	Compound	VDR inhibitor
1	CCCN(CCC)Cc1c(C(=O)N/N=C/c2cccs2)nnn1-c1nonc1N	20%
2	CCCc1nc(-c2ccc(-c3ccc(F)cc3)cc2)no1	4%
3	CN(CC(=O)Nc1cccc(F)c1)C(=O)CCc1nc2sc3c(c2c(=O)[nH]1)CCCC3	-9%
4	Cc1nc2ccc(N=NC3=C(O)CCCC3=O)cc2s1	3%
5	Cc1cc(Br)ccc1SCC(=O)Nc1cccnc1	-5%
6	O=C(c1cc(COc2ccc3ncccc3c2)on1)N1CCCC(O)C1 (stereo unspecified)	8%
7	CCC(=O)Nc1ccccc1-c1nc2ccccc2[nH]c1=O	-21%
8	O=C(COC(=O)c1cccnc1Cl)NCc1ccc2c(c1)OCO2	-1%
9	Cc1ccc(NC(=O)Cn2cncc2-c2ccc([N+](=O)[O-])cc2)cc1C	-20%
10	C=CCn1cccc(C(=O)Nc2ccc(OC)cc2)c1=O	5%
11	CC1CCCN(C(=O)CSc2nnc(-c3cccnc3)n2C2CCCCC2)C1 (stereo unspecified)	13%
12	Cc1csc(NC(=O)c2nn(C)c(C)c2[N+](=O)[O-])n1	10%
13	COc1ccc(-n2nc3c(c2NC(=O)C2CCCC2)CS(=O)C3)cc1 (stereo unspecified)	-19%
14	O=C(CSc1nc2nc(-c3cccs3)cc(C(F)(F)F)c2c(=O)[nH]1)C(F)(F)F	?
15	Cn1ncc2nnn(-c3ccccc3)c(=O)c21	-9%
16	CCCCc1nc2c(=O)[nH]c3ccccc3c2o1	16%
17	CCN(CC)CCOC(=O)C(Cc1ccco1)Cc1cccc2ccccc12 (stereo unspecified)	-11%
18	Cc1cccc(Cn2c(=O)n(CCc3ccccc3)c(=O)c3c(C)c(C)sc32)c1	-11%
19	Cc1ccc(-n2c(SCC(=O)O)nc3sc4c(c3c2=O)CCCC4)cc1	10%&-26%
20	CC(NC(=O)c1cc(-c2ccc(Br)cc2)on1)c1ccccc1 (stereo unspecified)	-13%
21	O=C(Nc1cccnc1)c1ccc2nc(-c3ccccc3)c(-c3ccccc3)nc2c1	3%
22	NS(=O)(=O)c1ccc(NC(=O)COc2cccc3ccccc23)cc1	3%
23	COC(=O)c1ccc(S(=O)(=O)N(CCO)Cc2ccccc2)n1C	-2%
24	COC(=O)c1sc(-c2cccs2)cc1NC(=O)/C=C/C(=O)O	?
25	CN(Cc1ccccc1)C(=O)C1CCN(Cc2ccc(F)cc2)CC1	-2%
26	O=C(CCN1C(=O)c2ccccc2C1=O)NCc1ccc(Cl)cc1	1%
27	O=C(CSc1n[nH]c(-c2cccs2)n1)N1CCCCC1	-6%
28	NNc1nc(-c2ccccc2Cl)nc2sc3c(c12)CCCC3	8%
29	Cc1cccc(C(=O)N2CCc3cc(-c4nc(NC(=O)CN5CCCC5)sc4C)ccc32)c1	30%
30	O=C(NCc1ccco1)C1CCCN(S(=O)(=O)c2ccc(Cl)cc2)C1 (stereo unspecified)	-7%
31	O=[N+]([O-])c1cccc(-c2nnc(SCc3cccnc3)o2)c1	4%
32	CCOC(=O)C(C)c1nn(C)c(=O)c2ccccc12 (stereo unspecified)	4%
33	Cn1cc2c(=O)n(/N=C/c3ccccc3)cnc2n1	10%
34	CC(=O)Nc1cccc(NC(=O)CSc2nnc3ccc(-c4ccncc4)nn23)c1	-2%
35	CCN(CC)C(=O)NC1CC(=O)N(c2ccc(OC)cc2)C1 (stereo unspecified)	1%
36	NC(=O)c1ccccc1NC(=O)CCN1C(=O)c2ccccc2C1=O	3%
37	Cc1ccc(NC(=O)CN2CCc3cc4c(cc3C2C)OCCCO4)cc1C (stereo unspecified)	2%
38	COc1ccc(N(C(=O)c2ccc(C)cc2)S(=O)(=O)c2ccc(Cl)cc2)cc1	?
39	Cc1ccccc1CSc1nc2cc(C(=O)NC3CCCC3)ccc2c(=O)n1Cc1ccccc1	12%
40	O=C(CSc1ccccn1)Nc1ccc(F)c([N+](=O)[O-])c1	1%

# The last 3 records of the part above are carried over, then new ones follow:
no.	Compound	VDR inhibitor
38	COc1ccc(N(C(=O)c2ccc(C)cc2)S(=O)(=O)c2ccc(Cl)cc2)cc1	?
39	Cc1ccccc1CSc1nc2cc(C(=O)NC3CCCC3)ccc2c(=O)n1Cc1ccccc1	12%
40	O=C(CSc1ccccn1)Nc1ccc(F)c([N+](=O)[O-])c1	1%
41	COC(=O)c1cccn(CC(=O)c2ccc(Cl)cc2)c1=O	-2%
42	Cc1ccc(-c2cnc(C3CC3)o2)cc1S(=O)(=O)Nc1cccc(C)c1C	6%
43	CCc1noc(C)c1C(=O)Oc1ccc(N(C)S(=O)(=O)c2ccccc2)cc1	-12%
44	CCCCOc1ccc(C(=O)NCC(=O)NCC(c2ccc(OC)cc2)N2CCCC2)cc1 (stereo unspecified)	-6%
45	CCCc1cnc2c(c1SCC(=O)Nc1ccc([N+](=O)[O-])cc1)c(=O)n(C)c(=O)n2C	3%
46	COc1ccc(S(=O)(=O)NCc2cccnc2)cc1C(=O)NC1CCCCC1	-5%
47	Cc1ccccc1NC(=S)NC1CCCC1	-2%
48	CCc1nnc(NC(=O)c2nc(SCc3ccc(F)cc3)ncc2Cl)s1	15%
49	COc1cc(C)c(Br)cc1S(=O)(=O)NCCCN1CCOCC1	-5%
50	O=C1CC(Nc2cc(=O)[nH]c(=O)[nH]2)C(=O)N1c1ccccc1Cl (stereo unspecified)	-9%
51	COc1ccc(N2CCN(C(=O)c3ccc4c(Cl)c5c(nc4c3)CCCC5)CC2)cc1	8%&-29%
52	O=C1CSC(c2cn(-c3ccccc3)nc2-c2ccccc2)N1Cc1ccco1 (stereo unspecified)	9%
53	CCOC(=O)C1CCN(C(=O)Cn2nc(C)c3c(C)n(-c4ccccc4)nc3c2=O)CC1	-15%
54	COc1ccc(OC)c(-c2nnc(SCC(=O)N3CCCc4ccccc43)o2)c1	-14%
55	CCOC(=O)c1sc(NC(=O)CCCn2nc([N+](=O)[O-])c(Cl)c2C)c(C(=O)OCC)c1C	-8%
56	COc1ccc(S(=O)(=O)NCC(c2ccco2)S(=O)(=O)c2ccc(C)cc2)cc1F (stereo unspecified)	11%
57	O=c1[nH]c(C2CCN(S(=O)(=O)c3ccccc3C(F)(F)F)CC2)nc2c1nnn2Cc1cccc(F)c1	5%
58	COc1ccccc1CC(O)CC1c2c(cc3c(c2OC)OCO3)CCN1C (stereo unspecified)	10%
59	COC(=O)c1sc2nc(SCc3ccccc3C)n(N)c(=O)c2c1C	-8%
60	Cc1ccc(N(CC(=O)Nc2ccc(Br)c(C)c2)S(=O)(=O)c2cccs2)cc1	-10%

# 3 compounds out of the list above, sorted by their value in VDR inhibitor, descending.
no.	Compound	VDR inhibitor
48	CCc1nnc(NC(=O)c2nc(SCc3ccc(F)cc3)ncc2Cl)s1	15%
44	CCCCOc1ccc(C(=O)NCC(=O)NCC(c2ccc(OC)cc2)N2CCCC2)cc1 (stereo unspecified)	-6%
50	O=C1CC(Nc2cc(=O)[nH]c(=O)[nH]2)C(=O)N1c1ccccc1Cl (stereo unspecified)	-9%

# Carrying on:
no.	Compound	VDR inhibitor
61	CCOC(=O)c1c(NC(=O)C2C3C=CC(C3)C2C(=O)O)sc2c1CCC(CC)C2 (stereo unspecified)	?
62	Cc1ccc(S(=O)(=O)N2CCN(C(=O)c3ccccc3)C2C(C)C)cc1 (stereo unspecified)	2%
63	O=C(c1cnccn1)N1CCC2(CC1)CN(C(c1ccccc1)c1ccccc1)C2	-1%
64	O=c1c2c(nc3nc(NCc4ccc(Cl)cc4)[nH]n13)CCC2	24%
65	O=C(CNC(=O)C12CC3CC(CC(C3)C1)C2)OCc1cc(=O)n2cc(Br)ccc2n1	10%
66	CCOC(=O)N1CCN(C(=O)c2ccccc2NC(=O)c2ccccc2Cl)CC1	19%
67	CCn1nc(NC(C)=O)c2cc3cccc(C)c3nc21	9%
68	CCOCCCNC(=O)C1CCN(S(=O)(=O)N2CCCCC2)CC1	11%
69	Cc1ccc(S(=O)(=O)N2CCC(C(=O)N3CCc4ccccc43)CC2)cc1C	-13%
70	CCOC(=O)c1ccc(-c2ccc3[nH]c4ccccc4c(=O)c3c2)cc1F	-6%
71	c1ccc(-c2ccc(N3CCCC4(CCNCC4)C3)cc2)cc1	?
72	CCOc1ccc(C2C(=O)N(C3CCCCC3)CC(=O)N2Cc2ccc(F)cc2)cc1OC (stereo unspecified)	5%
73	Fc1ccc2[nH]c3c(N4CCN(Cc5ccc6c(c5)OCO6)CC4)ncnc3c2c1	4%
74	O=C(CNS(=O)(=O)c1ccc(Br)s1)NCc1ccc(F)cc1	-7%
75	S=c1[nH]c2cc(-c3ccccc3)ccc2o1	11%
76	CNC(=O)CSc1nc2nn(-c3ccccc3)c(=O)c-2c2n1CCCCC2	11%
77	COc1ccc(NC(=O)CN2CCCC(C)C2)c([N+](=O)[O-])c1 (stereo unspecified)	2%
78	CCc1ccc(Sc2cc(C(=O)NCCCN3CCC(C)CC3)c3ccccc3n2)cc1	11%
79	CC1CCCN(CCCNC(=O)c2ccc3c(c2)N(Cc2ccccc2F)C(=O)c2ccccc2S3(=O)=O)C1 (stereo unspecified)	-11%
80	CC(C)Sc1nnc([C@H](C)NC(=O)OC(C)(C)C)o1	-10%
81	CCCCC(=O)OC1CCC2C3CCc4cc(O)ccc4C3CCC12C (stereo unspecified)	5%
82	COc1ccc(C(=O)NCC(=O)N2CCN(c3ccccc3)CC2)cc1	-5%
83	CCCc1nc(C)c(-c2ccc(OC)c(OC)c2)c(=O)[nH]1	3%
84	CCOC(=O)c1cccc(NC(=O)CCc2nc(-c3ccccc3F)no2)c1	2%
85	CCc1cc2c(=O)c(-c3nc4ccccc4n3C)coc2c(CN2CCCC(C)C2)c1O (stereo unspecified)	-8%
86	CC(OC(=O)c1cc2c(s1)CCCCC2)C(=O)NC(N)=O (stereo unspecified)	4%
87	CCOc1ccc(N2C(=O)CC(NC3CCN(C(=O)c4cccc(Cl)c4)CC3)C2=O)cc1 (stereo unspecified)	13%
88	Cc1cc(S(=O)(=O)N2CCCC2)ccc1OCC(=O)Nc1ccc(C(N)=O)cc1	-12%
89	Cn1c(=O)[nH]c(=O)c2c1ncn2CCN1CCCCC1	4%
90	O=C(Nc1cccnc1)C1CC(c2ccc(Cl)c(Cl)c2)=NO1 (stereo unspecified)	-2%
91	COC(=O)c1ccc(CN2C(=O)c3ccccc3S2(=O)=O)cc1	18%
92	COc1cc(-c2nnc(COC(=O)c3cccn3C)o2)cc(OC)c1OC	8%
93	COc1ccccc1C(=O)N1CCN(Cc2c[nH]c3ccccc23)CC1	-5%
94	COc1cc(CNC(C)C)ccc1OCC(=O)Nc1cccc2ccccc12	8%
95	C/C(=C\C(=O)OCCCCCCCCC(=O)O)C[C@@H]1OCC(C[C@H]2O[C@H]2[C@@H](C)[C@H](C)O)[C@@H](O)[C@H]1O (stereo partly specified)	-7%
96	COC(=O)CSC1=C(C#N)C(c2cccc(OC)c2)CC(=O)N1 (stereo unspecified)	-9%
97	COc1ccc(OC)c2sc(N3CCN(c4ccccc4)CC3)nc12	-19%
98	CC[C@]12c3[nH]c4cc(-c5ccco5)ccc4c3CCN1C(=O)[C@@H](CC(=O)NCCCOC)C[C@@H]2C(=O)N1CCN(C(=O)c2ccco2)CC1	?
99	CCOC(=O)C1=C(C)NC(=O)NC1c1cccs1 (stereo unspecified)	10%
100	Cc1ccccc1/C=C1\SC(=S)N(/N=C/c2cc([N+](=O)[O-])ccc2O)C1=O	-16%
101	O=[N+]([O-])c1ccc(Nc2ccccc2)nc1	4%
102	Cc1cc(C)c2[nH]c(=O)c(C(c3nnnn3Cc3ccc4c(c3)OCO4)N3CCCCC3)cc2c1 (stereo unspecified)	2%
103	Nc1c(C(=O)Nc2nc3ccccc3s2)sc2nc(-c3cccs3)ccc12	32%[activator]
104	COc1cccc(CCNC(=O)c2cccc(NC(=O)C3=C(C)OCCS3)c2)c1	-5%
105	O=C(Nc1ccccc1)N(CCCN1CCOCC1)Cc1ccccc1F	17%
106	CC1CN(C(=S)c2cccc([N+](=O)[O-])c2)CC(C)O1 (stereo unspecified)	-1%
107	O=C(Nc1ccccn1)c1cccc(S(=O)(=O)N2CCCCC2)c1	-7%
108	O=C(CNC(=O)c1ccc(Br)o1)Nc1ccc(F)c(S(=O)(=O)N2CCOCC2)c1	4%
109	Cc1cc2ncc(S(=O)(=O)c3ccccc3)c(N)n2n1	-1%
110	COc1ccc(C(C(=O)NCC2CCCO2)N(C(=O)CNC(=O)c2cccs2)c2ccccc2C)cc1OC (stereo unspecified)	1%
111	CCN(CC)C(=S)SCC(=O)Nc1ncc2c(n1)CCCC2=O	24%
112	O=C(CCNS(=O)(=O)c1ccc(Br)cc1)NCc1ccc2c(c1)OCO2	2%
113	O=C(CCc1ccccc1)N1CCN(c2ccc(Cl)cc2)CC1	-11%
114	CCCCCC(=O)NC(NC(=S)N1CCOCC1)C(Cl)(Cl)Cl (stereo unspecified)	2%
115	COc1ccc(C(CNC(=O)c2ccc(Cl)s2)N2CCOCC2)cc1 (stereo unspecified)	-17%
116	Cc1ccc(NC(=O)c2ccc(S(=O)(=O)NCc3ccco3)cc2)cc1	35%[activator]
117	COc1ccccc1Nc1nnc(SCC(=O)NC2CC2)s1	-7%
118	Cc1ccc(C)c(-n2c(SCC(=O)Nc3nnc(C)s3)nnc2-c2ccoc2C)c1	-2%
119	CC(C)(C)c1ccc(OCC(=O)N2CCC(c3nc4ccccc4s3)CC2)cc1	5%
120	CCOC(=O)CSc1nc2c(sc(=S)n2-c2ccccc2)c(=O)[nH]1	-13%

# (further entries)
no.	Compound	VDR inhibitor
121	O=C(NCCc1ccco1)c1cc(COc2cccc(C(F)(F)F)c2)on1	?
122	COCc1cc(C)nc2sc3c(c12)NC(c1ccc(O)cc1)N(c1ccc(C)cc1)C3=O (stereo unspecified)	3%
123	Cc1cccnc1NC(=O)c1nn(C)c2c1CS(=O)(=O)c1ccccc1-2	-14%
124	CCN1CCN(S(=O)(=O)c2ccc(Cl)c(C(=O)N(C)CCOc3ccc(Cl)cc3)c2)CC1	3%

# Only part of the results is shown (hit frequency here may not be typical).
